Bioassay records (PubChem BioAssay)
gsp agonist = activates gsp, the McCune-Albright syndrome mutation | gsp mutant cells, cAMP HTRF, 30 min; control for the full effect not named in the record | Potency, µM (titrated, usually from 76.9 µM), without a hit: at the top dose activation (cAMP increase), actives largely listed as activators | 340,000 tested, 0.13% active; active = well fitted activation curve with a large enough effect; inconclusive = small, poorly fitted or top-dose-only effect, or another doubt; inactive = no such curve, though single readings can be large or run the other way; cell line not stated here;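 also: phosphodiesterase inhibitor Ro 20-1724 added with compounds to block cAMP breakdown; potency is read from the fitted curve at half-maximal effect; nearly all actives have a fitted effect of over 60% in size; about a fifth of the inactives were tested at one dose only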
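Cells stably selected in G418 were plated at 2000/well, grown 16-24 hr, then given compounds in DMSO with the PDE inhibitor […] (300 uM solution added) for 30 min at 37C; cAMP was read by HTRF.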
ClpP mod = qHTS Assay for Activators of ClpP; ATP-dependent Clp protease proteolytic subunit (Bacillus subtilis (strain 168)), P80244; purified B. subtilis ClpP, FRET peptide cleavage, 20 min; Potency, µM (top dose mostly 57.5 µM), inactives show at the highest dose activity change, negative = active; 340,000 tested, 1.9% active; AID 651965, 2013; active = well fitted falling curve with a large enough effect; inconclusive = small, poorly fitted or top-dose-only effect; inactive = no such curve, though single readings can be large or run the other way; also: potency is read from the fitted curve at half-maximal effect; the source files actives as falling curves though it sought activators and does not explain the sign; nearly all actives have a fitted effect of over 65% in size; many hits overshoot -100%
Target sequence (P80244 whole entry, looked up): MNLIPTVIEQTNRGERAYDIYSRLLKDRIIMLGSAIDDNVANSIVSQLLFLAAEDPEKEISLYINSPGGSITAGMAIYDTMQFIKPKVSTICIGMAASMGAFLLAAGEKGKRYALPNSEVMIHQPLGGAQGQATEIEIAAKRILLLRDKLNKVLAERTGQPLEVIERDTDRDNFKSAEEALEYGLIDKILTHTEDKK
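FRET quenching reversal measured ClpP activation: 10 microg/mL B. subtilis ClpP at pH 8 with the FRET-FV decapeptide, read at 430 nm after 320 nm excitation. The 20-min minus 0-min signal was scaled between DMSO/no-enzyme wells and ADEP (5.8 microM final).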
gsp antag = antagonists of gsp mutant (McCune-Albright syndrome); Potency, µM (titrated, usually from 76.9 µM), for inactives: at the highest dose activity change, negative = inhibition, actives largely listed as inhibitors; 340,000 tested, 0.4% active; gsp-mutant cells, cAMP HTRF, 30 min; control for the full effect not named in the record; active = falling curve of any shape with a large fitted effect; inconclusive = falling curve, mostly with a smaller effect; inactive = flat or rising curve; cell line not stated here;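 also: intracellular cAMP measured with PDE inhibitor Ro 20-1724 present during compound exposure; potency is read from the fitted curve at half-maximal effect; % is scaled to controls: 0 for no effect and ±100 for the full control effect; nearly all actives have a fitted effect of over 65% in size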
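HTRF cAMP measurement after 30 min RT detection following 30 min, 37C compound treatment alongside […] (added as 300 uM solution) in G418-selected cells seeded at 2000/well and grown 16–24 h.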
TRPML1 agonist = human mucolipin-1 channel agonism; TRPML1-expressing cells, Ca2+ dye fluorescence, FDSS; host cell line not named in the record; reference of the full effect not given here; 410,000 tested, 0.12% active; Q9GZU1; activation, % (no concentration beside the values); AID 624414; in the data active = activation above about 50%; inconclusive = about 30% to 50%; inactive = below about 30%; also: 0% is about no effect; the text of the record puts the active cut at 80%
Target sequence (Q9GZU1 whole entry, looked up): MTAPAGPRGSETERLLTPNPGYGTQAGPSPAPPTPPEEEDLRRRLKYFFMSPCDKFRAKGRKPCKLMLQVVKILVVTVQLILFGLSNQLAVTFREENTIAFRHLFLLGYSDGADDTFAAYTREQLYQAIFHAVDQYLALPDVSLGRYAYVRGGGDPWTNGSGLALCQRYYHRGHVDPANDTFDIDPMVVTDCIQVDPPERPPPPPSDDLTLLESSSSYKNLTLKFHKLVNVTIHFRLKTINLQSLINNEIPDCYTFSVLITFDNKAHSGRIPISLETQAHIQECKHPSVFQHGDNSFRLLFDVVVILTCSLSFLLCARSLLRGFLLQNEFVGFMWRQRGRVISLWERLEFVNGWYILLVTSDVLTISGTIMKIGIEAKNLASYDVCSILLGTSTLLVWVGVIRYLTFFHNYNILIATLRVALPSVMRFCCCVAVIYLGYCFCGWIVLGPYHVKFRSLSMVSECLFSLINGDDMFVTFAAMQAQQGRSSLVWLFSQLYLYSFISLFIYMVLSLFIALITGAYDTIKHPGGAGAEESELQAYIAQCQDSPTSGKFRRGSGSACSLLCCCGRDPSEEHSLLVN
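Calcium fluorescence on an FDSS kinetic reader gave the read-out. Tet-induced TRPML1-DL cells were plated overnight, dye-loaded (Ca8 with quencher, 45-90 min, room temperature, dark), then read 110 s after compound addition, and again 110 s after 4uM final 54-4 (EC80).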
TRPML1 inh = human mucolipin-1 channel inhibition; Q9GZU1; TRPML1-inducible cells, Ca2+ dye fluorescence, FDSS; stronger effect = lower value; inhibition of EC80 agonist-evoked calcium signal; activity change, negative = inhibition, % (concentration not given with the values); 390,000 tested, 0.02% active; in the data active means activity change below about -50%; inconclusive means about -30% to -50%; inactive means above about -30%;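 also: stimulus is agonist 54-4 at its EC80 concentration; % is scaled to controls: 0 for no effect and ±100 for the full control effect; compound concentration not given in the record; the text of the record puts the active cut at -80%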
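TRPML1-DL cells, Tet-induced overnight (~16 h, 37 °C) at 1,500 cells/well, were loaded with Ca8 no-wash dye plus quencher for 45-90 min at room temperature. Compounds were pinned during FDSS kinetic reading; agonist 54-4 at EC80 (4 uM final) then added.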
Menin MLL FP FL = displaces fluorescein MLL peptide from human menin; 290,000 tested, under 10 active; AID 1766; Fluorescence polarization, fluorescein-MLL peptide displacement from menin; FP activity change, % at 61.4 µM; inconclusive = falling polarisation curve, or a change in total fluorescence; inactive = total fluorescence flat and polarisation flat or rising; no compound was filed as active; the % refers to the polarisation; negative = inhibition;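 also: % of control where 0% means no effect; inhibitors lower the polarisation; unlabelled MLL peptide was the positive control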
An asterisk follows results filed as active; ? = inconclusive; nt = not tested or not shown; [ ] = dose if it differs, or a comment.

SMILES	gsp agonist	ClpP mod	gsp antag	TRPML1 agonist	TRPML1 inh	Menin MLL FP FL
C=CCSc1nc(N)c2c3c(sc2n1)CN(C)CC3	?	3.2%	-4.7%	nt	nt	19.4
COCCN(C(=O)COC(=O)CCCc1c[nH]c2ccccc12)c1c(N)n(Cc2ccccc2)c(=O)[nH]c1=O	-0.4%	-2.9%	5.0%	2.1	-6.5	nt
CCOC(=O)c1c(CSc2ccsc2)n(C)c2cc(Br)c(O)c(CN(C)C)c12	2.3%	-1.5%	-17.2%	1.1	1.4	1.3
CCCS(=O)(=O)C/C(N)=N/OC(=O)c1ccccc1Cl	?	nt	6.5%	0.6	33.6	-6.3
COc1ccc(CCCc2nnc(SCC(=O)Nc3ccccc3F)o2)cc1	12.7%[15.4 µM]	nt	-7.7%	1.3	10.3	-0.7
CC(=O)N(Cc1ccccc1)c1ncc2c(n1)c(=O)c(C#N)c1ccccn12	13.2%	-12.1%	0.5%	2.3	-7.8	-7.4
CC(OC(=O)C12CCC(=O)N1c1ccccc1S2)C(=O)Nc1cccc(Cl)c1 (centres undefined)	-98.6%[inhibitor]	0.1%	-12.8%	-0.7	3.4	nt
Cn1c(=O)c2c(ncn2CC(=O)OCC(=O)Nc2cc(Cl)ccc2C#N)n(C)c1=O	?	nt	15.4%	-0.8	-12.3	nt
CC(C)(C)n1ncc2c(=O)n(CC(=O)NCCc3ccccc3)cnc21	15.5%	-2.4%	0.7%	0.2	17.8	3.4
CC(=O)Nc1ccc(S(=O)(=O)NCc2cn3ccsc3n2)cc1	-16.4%	2.7%	5.6%	0.4	0.0	1.1

The last two entries of the part before come first, to join the parts:
SMILES	gsp agonist	ClpP mod	gsp antag	TRPML1 agonist	TRPML1 inh	Menin MLL FP FL
CC(C)(C)n1ncc2c(=O)n(CC(=O)NCCc3ccccc3)cnc21	15.5%	-2.4%	0.7%	0.2	17.8	3.4
CC(=O)Nc1ccc(S(=O)(=O)NCc2cn3ccsc3n2)cc1	-16.4%	2.7%	5.6%	0.4	0.0	1.1
CN(C)Cc1nnnn1-c1cccc(-n2nnnc2CN(C)C)c1	3.4%[15.4 µM]	nt	7.0%	2.1	2.9	2.0
CC1CCN(C(c2cccs2)c2nnnn2Cc2ccccc2)CC1 (centres undefined)	0.0%	-0.5%	-24.3%	7.8	-11.7	3.6
CC(=O)c1cnc(N2CCCCC2)nc1C	-0.7%	0.6%	7.0%	0.1	-4.1	1.2
Cc1ccc(S(=O)(=O)N2CCOCC2)cc1NC(=O)CSc1nnnn1C1CCCC1	28.9%	2.0%	-1.8%	-1.0	-6.3	nt
O=c1c2ccccc2n(Cc2c(F)cccc2Cl)c(=O)n1Cc1ccccc1	nt	-12.4%	nt	2.1	19.5	nt
Cc1ccccc1Cn1cc(NC(=O)COc2ccccc2)cn1	3.5%	-1.2%	-7.4%	0.7	-3.9	-1.2
Nc1cc(-c2cccc(Br)c2)nn1Cc1ccccc1	11.3%	1.8%	-12.0%	-0.2	-22.8	0.9
c1ccc(COc2ccc(OCCn3cncn3)cc2)cc1	-9.4%	0.5%	-10.4%	0.0	3.8	0.6
Cc1nn(CC(=O)NCc2ccco2)c(C)c1[N+](=O)[O-]	5.4%	-0.2%	7.4%	0.1	23.5	1.1
Cc1cc(OCCSc2nnc(-c3cccs3)n2C)ccc1Cl	1.1%	-1.8%	35.5µM*	2.7	21.3	-4.6
O=C(Cn1nc(-c2ccccc2)c2ccccc2c1=O)Nc1cccc(O)c1	7.2%[15.4 µM]	nt	-11.3%	0.7	38.1	2.3
CC1CCC(C(=O)NC(C(=O)N2CCc3ccccc3C2)C(C)C)CC1 (centres undefined)	-1.1%	1.5%	-0.5%	-0.1	-8.5	-2.6
COC(=O)CNC(=O)c1cn(CC(C)C)c(=O)c2cc(OC)c(OC)cc12	3.0%	-21.5%	9.9%	-0.7	-9.2	1.6
Cc1cc([N+](=O)[O-])nn1CC(=O)Nc1cc(F)ccc1F	?	1.9%	5.6%	-0.2	18.5	5.8
C[C@H](CO)N1C[C@H](C)[C@H](CN(C)C(=O)c2ccccc2)Oc2cc(Br)ccc2S1(=O)=O	-51.4%[inhibitor]	-0.4%	nt	0.6	1.1	nt
Cc1cccc(NS(=O)(=O)c2cc3c(cc2C)NC(=O)CO3)c1	4.4%	-1.5%	7.4%	0.5	4.8	2.4
Cc1ccc(S(=O)(=O)N2CCN(C(=O)Cn3c(=O)oc4ccccc43)CC2)c(C)c1	-21.1%	1.5%	-10.0%	0.5	2.5	nt
COc1c(Br)cc(Br)cc1C(=O)Nc1ccccc1N1CCCC1	8.0%[15.4 µM]	-2.1%	2.2%	6.8	3.2	6.8
CC(C)Nc1nnc(SC(C)C(=O)N(C)C2CCCCC2)s1 (centres undefined)	-4.4%[15.4 µM]	nt	7.4%	0.2	14.0	nt
Cc1ccc(CNC(=O)CC(C)S(=O)(=O)c2ccc3c(c2)NC(=O)C(C)S3)cc1 (centres undefined)	2.8%	0.5%	-10.3%	-1.2	12.5	12.8
COc1ccc(OCCCn2c(=O)oc3ccc(C)cc32)cc1	nt	1.7%	nt	2.9	-1.0	nt
COC(=O)c1ccccc1NC(=O)Nc1cccnc1	-11.6%	?	7.4%	-0.4	-3.9	0.9
COc1ccc(C)cc1NC(=O)CN(c1ccccc1F)S(C)(=O)=O	7.9%[15.4 µM]	1.2%	7.8%	2.3	12.8	1.0
COc1cccc(NC(=O)C2CCN(S(=O)(=O)c3ccc4[nH]c(=O)oc4c3)CC2)c1	27.2%	0.7%	5.1%	-0.1	4.2	nt
O=C(NCc1ccc(Cl)cc1)C1CCN(S(=O)(=O)c2cccs2)CC1	2.3%[15.4 µM]	nt	-19.4%	-0.2	12.1	0.3
Cc1onc(-c2ccccc2)c1C(=O)N1CCN(c2ccccn2)CC1	?	-20.2%	-4.3%	7.9	-10.4	nt
CSc1nc(C)c(Cc2ccccc2)c(=O)[nH]1	?	nt	7.2%	-0.2	-25.8	0.2
CSc1nsc(SC)c1NC(=O)OCc1ccccc1	-1.7%	0.9%	-1.2%	1.9	1.5	-1.1
CCN1CCN(c2cc(C)c3cc(NC(=S)N4CCN(c5ccccc5)CC4)ccc3n2)CC1	-2.5%[15.4 µM]	nt	19.3%	-0.5	27.3	-6.9
COc1ccc(Nc2cc(C)c3ccc(O)cc3n2)cc1	22.3%	-7.8%	-9.2%	0.3	10.1	2.2
CCCn1c(=N)n(CC(=O)c2ccc(Cl)c(Cl)c2)c2ccccc21	-9.8%[15.4 µM]	nt	-7.4%	-0.8	-5.5	0.9
COc1ccc(C2C(C#N)=C(N)N(Nc3ccccc3)C3=C2C(=O)CC(C)(C)C3)cc1C (centres undefined)	7.3%	0.1%	-21.3%	0.0	-11.1	4.3
COC(=O)N1C(=O)[C@](c2ccccc2)(C2CCCCC2)N1C(=O)OC	23.2%	4.3%	17.1%	0.1	-2.0	2.0
Cc1ccc(/C=N/n2nnnc2N)cc1[N+](=O)[O-]	-2.0%	-5.4%	6.9%	2.8	4.4	3.1
COCCNC(=S)N/N=C/c1ccc(OCc2ccc(C(=O)OC)cc2)c(OC)c1	-0.6%	-21.9%	-3.6%	0.0	-3.2	0.1
COC(=O)CSC1=C(C#N)C(c2ccc(Cl)cc2)C(C(=O)OC)C(=O)N1 (centres undefined)	-21.7%	-0.3%	-15.9%	-0.4	3.0	0.0
O=C(CC1C(=O)NCCN1Cc1c(F)cccc1Cl)NC1CCCCCC1 (centres undefined)	16.3%	-1.7%	3.4%	-0.3	0.5	-1.9
O=C(O)CCC(=O)N1N=C(c2cccs2)CC1c1cccc([N+](=O)[O-])c1 (centres undefined)	-0.3%[15.4 µM]	0.5%	-5.4%	0.2	22.2	-0.1
NS(=O)(=O)c1cccc(NC(=O)c2cc(-c3cccs3)nc3ccccc23)c1	4.1%	3.5%	-14.9%	0.1	-6.6	5.0
CC(CP(=O)(O)O)NC(=O)Cc1ccccc1 (centres undefined)	?	-1.0%	11.9%	0.5	6.3	?
O=C(Nc1ccc2c(c1)C(=O)NC2=O)c1cc(Cl)ccc1Cl	?	31.6µM*	22.2%	-0.2	19.3	-1.7
CCN(C(=O)Cn1ncc2c1-c1cc(C)ccc1OC2)c1cc(Cl)ccc1OC	nt	-1.4%	nt	1.3	19.3	nt
COC(=O)c1cc(C(=O)OCC(=O)NC(=O)NCc2ccccc2)cc([N+](=O)[O-])c1	-77.4%[inhibitor]	1.3%	-9.7%	1.3	1.1	nt
COc1ccc(C(=O)NC(=S)Nc2ccc3oc(=O)ccc3c2)cc1[N+](=O)[O-]	-8.1%[15.4 µM]	1.3%	-2.2%	-0.5	15.0	nt
CCOC(=O)C1C2C=CC3(CN(Cc4ccccc4)C(=O)C13)O2 (centres undefined)	6.6%[15.4 µM]	0.0%	6.7%	-1.0	-3.7	-0.5
Cc1nc(SCC(=O)c2cc3ccccc3oc2=O)c(C#N)c(-c2ccccc2)c1C(=O)Nc1ccccc1	-5.5%	1.7%	-2.9%	-0.2	21.7	4.5
CCC(C)(C)n1nnnc1C(c1cc2cc(C)cc(C)c2[nH]c1=O)N1CCN(C(=O)c2ccco2)CC1 (centres undefined)	-25.1%	?	-1.8%	0.1	-10.8	3.4
CCOc1ccccc1C(=O)Nc1ccc2nc(N(CC)CC)cc(C)c2c1	nt	-4.7%	nt	-0.1	1.2	nt
COc1cc2c(cc1OC)CN(C1CCCN(Cc3cc(Cl)ccc3O)C1)CC2 (centres undefined)	2.1%	-25.4%	-3.5%	0.5	-5.2	-2.9
COc1ccc(F)cc1S(=O)(=O)n1nc(C)cc1C	-26.6%	nt	-4.0%	-0.7	8.7	-0.9

(more compounds)
SMILES	gsp agonist	ClpP mod	gsp antag	TRPML1 agonist	TRPML1 inh	Menin MLL FP FL
COc1ccc(CCNCc2ccc(-c3ccccc3)cc2)cc1OC	12.1%	nt	3.9%	1.9	-3.0	nt
COC(=O)C(Cc1c[nH]c2ccccc12)NC(=O)c1ccc2nc[nH]c2c1 (centres undefined)	25.8%[15.4 µM]	-1.2%	-13.2%	1.2	-8.2	nt
CCc1ccnc(NS(=O)(=O)c2ccc3c(c2)OCCO3)c1	-2.0%[15.4 µM]	0.6%	8.3%	-0.2	15.3	-0.6
COCc1c(C(=O)Nc2ccc3nc(N4CCOCC4)sc3c2)oc2ccccc12	-22.1%[15.4 µM]	-1.2%	-14.3%	0.4	-21.8	nt
COc1ccc(Cl)cc1NC(=O)C/C(C)=N/NC(=O)c1ccccc1[N+](=O)[O-]	10.0%	-1.0%	?	-0.6	4.8	3.0
O=C(COc1ccc([N+](=O)[O-])cc1)N/N=C/c1ccccn1	18.9%	0.7%	-4.8%	-0.5	9.3	-0.3
